GCN5L2 inh = qHTS Assay for Inhibitors of GCN5L2. Histone acetyltransferase KAT2A (Homo sapiens), Q92830. GCN5L2 HAT assay, ThioGlo1 CoA-SH fluorescence. Potency, µM (top dose mostly 58.9 µM), for the others: at the top dose activity change, negative = inhibition, hits mostly inhibitors. 390,000 compounds, 0.21% hits. AID 504327, 2011
Target sequence (Q92830 whole entry, looked up): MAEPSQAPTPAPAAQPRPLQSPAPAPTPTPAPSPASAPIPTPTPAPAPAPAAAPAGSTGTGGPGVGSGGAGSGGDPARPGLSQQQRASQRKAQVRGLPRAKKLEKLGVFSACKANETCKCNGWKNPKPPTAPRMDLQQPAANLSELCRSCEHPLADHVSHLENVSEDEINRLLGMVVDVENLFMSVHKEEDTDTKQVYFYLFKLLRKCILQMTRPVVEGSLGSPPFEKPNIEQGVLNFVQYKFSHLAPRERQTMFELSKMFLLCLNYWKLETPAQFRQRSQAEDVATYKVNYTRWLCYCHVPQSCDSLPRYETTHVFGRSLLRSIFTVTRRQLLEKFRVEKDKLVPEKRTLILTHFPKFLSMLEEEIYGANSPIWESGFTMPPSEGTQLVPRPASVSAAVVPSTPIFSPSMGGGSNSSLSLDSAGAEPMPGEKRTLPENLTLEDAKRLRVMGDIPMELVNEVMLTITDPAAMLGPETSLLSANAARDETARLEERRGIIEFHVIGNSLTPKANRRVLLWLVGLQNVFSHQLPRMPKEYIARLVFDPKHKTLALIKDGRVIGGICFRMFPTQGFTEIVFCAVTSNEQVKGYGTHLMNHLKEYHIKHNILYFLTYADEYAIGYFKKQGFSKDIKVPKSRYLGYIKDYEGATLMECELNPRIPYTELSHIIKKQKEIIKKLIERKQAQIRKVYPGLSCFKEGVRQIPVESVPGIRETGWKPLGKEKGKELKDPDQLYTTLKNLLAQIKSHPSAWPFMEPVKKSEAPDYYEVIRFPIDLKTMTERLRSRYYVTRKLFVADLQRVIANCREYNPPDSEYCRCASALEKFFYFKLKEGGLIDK
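Free CoA generated was detected with ThioGlo1 (50uM) fluorescence at Ex340nm/Em540nm, read immediately and after 20 min at room temperature. Enzyme, 20 nM in HEPES pH 7.5 buffer, saw compounds 15 min before adding 75uM H3(1-25) peptide and 70uM acetyl-CoA.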
N370S GC = qHTS Assay for Inhibitors and Activators of N370S glucocerebrosidase as a Potential Chaperone Treatment of Gaucher Disease | N370S GC spleen homogenate, 4MU-glucoside fluorescence | Potency, µM (titrated, usually from 59.4 µM), without a hit: at the top dose activity change, negative = inhibition, most hits filed as inhibitors | 330,000 compounds, 0.092% hits | AID 2101, 2009;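 further: 0% = full enzyme activity and -100% = no enzyme basal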
* marks the source's active call; other numbers are inactive results; ? = inconclusive; / = no result given; & = joins results of further samples; [ ] = another dose, or the depositor's remark. The call rests on the fitted dose curve; in most records, active means well fitted curve in the direction sought with a large enough effect; inconclusive means small, poorly fitted or top-dose-only effect, or another doubt; inactive means no such curve, though single readings can be large; an effect the other way counts as inactive or inconclusive. Unless noted, on the % scale 0 is the no-effect control and ±100 the full control effect; potency means the concentration at half of the fitted maximal effect.

SMILES	GCN5L2 inh	N370S GC
COc1ccc(CCn2c(O)c(C=NCCCn3ccnc3)c(=O)[nH]c2=O)cc1OC	-5%	-1%[12.8 µM]
COc1ccc(OCC(=O)N2CCN(Cc3ccc4c(c3)OCO4)CC2)cc1	0%	-19%
Cc1cccc(CN2CCCC(C(=O)c3cccc(OC(C)C)c3)C2)n1 (stereo unspecified)	-10%	-2%
C[N+]1(C)CCC(OC(=O)C(c2ccccc2)c2ccccc2)CC1	?	-1%&1%&-6%
COc1cc(CN=Cc2c(O)n(C(C)(C)C)c(=O)[nH]c2=O)cc(OC)c1	-2%	?
CN(C)c1ccc(/C=C2\C(=O)NC(=O)N(Cc3ccc(F)cc3)C2=O)cc1	-4%	-3%
CCOC(=O)C1CCN(/C=C2/C(=O)NC(=S)N(c3cccc(OC)c3)C2=O)CC1	-2%	6%
C=CCn1c(O)c(C(C)=NCCN2CCOCC2)c(=O)[nH]c1=O	-19%	2%
CCOP(=O)(OCC)C(O)c1cccnc1 (stereo unspecified)	0%	4%
O=c1[nH]c(=S)n(-c2ccccc2F)c(O)c1C=Nc1ccc(N2CCOCC2)cc1	-6%	-7%
Cn1c(O)c(C=Nc2ccccc2Sc2ccccc2)c(=O)n(C)c1=O	-4%	8%
CCc1nn(CC(=O)N2CCC3(CC2)OCCO3)c(=O)c2cccn12	-5%	4%
Cc1ccc(CN2CCN(Cc3ccccc3)CC2)cc1	-7%	-28%
C[C@]12CCC3C(CC[C@H]4C[C@@H](O)CC[C@]34C)C1CCC2=O (stereo partly specified)	-6%	/
c1cncc(C2CC(c3cccs3)n3ncnc3N2)c1 (stereo unspecified)	-5%	3%
CC[C@@]1(c2ccc(N)cc2)CCC(=O)NC1=O	-3%[21.4 µM]	-3%[21.6 µM]
C=CCn1c(O)c(C(CC)=NCCc2c[nH]c3ccccc23)c(=O)[nH]c1=O	-3%	?
Cc1ccc(CS(=O)(=O)Cc2ccc(C(=O)N3CCC4(CC3)OCCO4)o2)cc1	83%[activator]	1%
COc1cccc(-n2c(O)c(C=NCCN3CCNCC3)c(=O)[nH]c2=S)c1	-13%	2%
O=C1NC2NC(=O)N([N+](=O)[O-])C2N1 (stereo unspecified)	-12%	-2%

Reprinted at random: two compounds from above.
SMILES	GCN5L2 inh	N370S GC
Cn1c(O)c(C=Nc2ccccc2Sc2ccccc2)c(=O)n(C)c1=O	-4%	8%
CCOP(=O)(OCC)C(O)c1cccnc1 (stereo unspecified)	0%	4%

The results go on.
SMILES	GCN5L2 inh	N370S GC
Nc1c(C(=O)Nc2ccc(Cl)cc2)sc2nc3c(cc12)N1CCC3CC1	-8%	/
NS(=O)(=O)OC(CCc1ccccc1)C(Cl)(Cl)Cl (stereo unspecified)	-7%	-4%
Clc1cccc(CN2CCCCC2c2cccnc2)c1 (stereo unspecified)	-12%	4%
O=C1C2C3CCC(O3)C2C(=O)N1CCO (stereo unspecified)	-16%	12%
Cc1ccc(CN(Cc2ccccc2)C(=S)NCC(=O)N2CCC3(CC2)OCCO3)o1	-13%	-4%
c1ccc2sc(C3CCCNC3)nc2c1 (stereo unspecified)	?	4%
CCN(CC)c1ccc(N=Cc2c(O)n(-c3ccc(Cl)cc3)c(=O)[nH]c2=O)cc1	-1%	-2%
CC(=O)c1c(C)n(Cc2ccccc2)c2ccc(O)cc12	-2%	-3%
Clc1cc(Cl)cc(NC2=NCCS2)c1	-3%	-25%
N[C@]1(C(=O)O)CC[C@@H](C(=O)O)C1 (racemic)	5%&-11%	15%&12%
O=c1[nH]c(=O)n(CCC2=CCCCC2)c(O)c1/C=N/Nc1ccccc1	49%	7%
O=c1[nH]c(=S)n(-c2ccccc2)c(O)c1C=NCCN1CCNCC1	-6%	-8%
O=CC(Br)P(=O)(N1CCOCC1)N1CCOCC1 (stereo unspecified)	-17%	-5%
CC(C)C12CN3CCN(CC(C3)C1O)C2 (stereo unspecified)	/	7%
O=C(Cc1ccccc1)NC(Cc1ccc(Cl)cc1)C(=O)O (stereo unspecified)	0%	15%
NC(=O)c1cn(C2CCCCC2)c2ccccc2c1=O	-13%	-5%
CC(C)CCNC(=O)CN1C(=O)CN=C(c2ccccc2)c2ccccc21	3%	3%
O=c1[nH]c(=O)n(Cc2ccco2)c(O)c1C=NCCCn1ccnc1	-7%	-2%
COc1cc2c(C(=O)N3CCN(C)CC3)c(C)n(C)c2cc1Br	-3%	-2%
CC1CCCCN1Cc1cccnc1 (stereo unspecified)	-2%	3%
Cc1cc(OC(C)C(=O)NCC2CCC(C(=O)O)CC2)c2c3c(c(=O)oc2c1)CCC3 (stereo unspecified)	-10%	-2%
Cc1ccc(C2=[N+]([O-])C3(CCCCC3=O)N(O)C2(C)C)cc1 (stereo unspecified)	-1%	?
C[C@]12CC[C@H](O)C[C@@H]1CC[C@@H]1[C@@H]2CC[C@]2(C)C(=O)CC[C@@H]12	?	-4%
O=c1c2ccccc2nc(-c2ccco2)n1-c1cccnc1	-6%	-2%
C#CCN(C)[C@@H](C)Cc1ccccc1	11µM*	1%[21.6 µM]
CC(=O)Cc1c[nH]c2ccccc12	4%	0%
CC(Cc1ccccc1Sc1ccc(O)cc1)N(C)C (stereo unspecified)	-11%	-17%
CCN1CCN(C(=O)Cc2coc3ccc4ccccc4c23)CC1	0%	-21%
O=[N+]([O-])c1ccc2nc(CCCc3nc4ccc([N+](=O)[O-])cc4[nH]3)[nH]c2c1	-6%	?
CCCCCn1c(=O)c(C(=O)Nc2nc(CC(=O)OCC)cs2)c(O)c2ccccc21	-4%	-5%
CCC(=O)c1cn(Cc2ccccc2)c2ccccc12	11%	12%
CCC(=O)O[C@H]1CC[C@H]2[C@@H]3CCC4=CC(=O)CC[C@]4(C)[C@H]3CC[C@]12C	6%[21.4 µM]	16%[21.6 µM]
FC(F)(F)c1ccccc1CCN1CCNCC1	-6%	-12%
O=c1c2ccccc2nc(-c2cccs2)n1-c1ccccc1	1%	4%
Cc1ccc(S(=O)(=O)NP(=O)(Oc2ccccc2)Oc2ccccc2)cc1	-4%	-3%
CN1CCN(Cc2ccc3ccccc3c2)CC1	-1%	6%
Cc1ccc(CC(=O)N2CCN(C)CC2)cc1	-5%	0%
C[C@]12CC[C@H](O)CC1=CC(=O)C1C2CC[C@]2(C)C(=O)[C@H](O)CC12 (stereo partly specified)	-4%	/
O=C(Cc1ccccc1)OCCN1CCOCC1	1%	3%
O=C(c1ccc2c(c1)ncn2-c1ccc(F)cc1F)N1CCC2(CC1)OCCO2	-2%	-2%
O=C1CN=C(c2ccccc2)c2ccccc2N1	-20%	1%
C[C@]12CC[C@@H](O)C[C@@H]1CC[C@@H]1[C@@H]2CC[C@]2(C)C(=O)CC[C@@H]12	?	-6%&-4%
CCSc1nnc([C@@H](N)Cc2c[nH]c3ccccc23)o1	-1%	-1%
CN(C)c1ccc(/C=C2/C(=N\O)C3CCN2CC3)cc1	-4%	-14%
O=c1[nH]c(O)c(/C=C2\C=NN=C2c2ccccc2)c(=O)[nH]1	-12%	2%
CC(C)(C)P(=O)(c1ccncc1)N1CCCC1 (stereo unspecified)	-1%	3%
O=[N+]([O-])/C=C1\NCCN1Cc1ccc(Cl)nc1	-3%&2%	-13%&-2%
COc1ccc(-n2c(O)c(C(C)=NCc3ccco3)c(=O)[nH]c2=O)cc1	-16%	3%
CN1CCN(c2ccc([N+](=O)[O-])cc2Cl)CC1	-4%	2%
C[C@]12CCC3[C@@H](CC[C@H]4C[C@@H](O)CC[C@]34C)C1CCC2=O (stereo partly specified)	-6%	-5%
CCCCC(=O)N/N=C/c1c(O)n(CCC2=CCCCC2)c(=O)[nH]c1=O	-4%	-7%
C[N+]12CCC(CC1)C(C(O)(c1ccccc1)c1cccs1)C2 (stereo unspecified)	-12%	4%
O=P(CN1CCN(c2ccccc2)CC1)(N1CCCCC1)N1CCCCC1	-4%	3%
CCC(CC)C1C(C#N)=C(N)Oc2c1c(=O)oc1ccccc21 (stereo unspecified)	-5%	11%
CCC(CO)(C(=O)OC1C[N+]2(C)CCC1CC2)c1ccccc1 (stereo unspecified)	-7%	-10%
Cn1c(O)c(C=NCCN2CCN(C(=O)c3ccccc3)CC2)c(=O)n(C)c1=O	-6%	0%
CNCCc1c(C)n[nH]c1C	1%	9%
CCCCCn1c(=O)c(C(=O)Nc2c(C)n(C)n(-c3ccccc3)c2=O)c(O)c2ccccc21	22%	2%
COc1ccc(CCn2c(O)c(C=Nc3ccccc3F)c(=O)[nH]c2=O)cc1OC	-5%	6%
CC(=O)N1CN2CN(C(C)=O)CC(C(=O)c3ccc([N+](=O)[O-])cc3)(C2)C1	-6%	0%

Some of these compounds in order of molar mass, smallest number first.
SMILES	GCN5L2 inh	N370S GC
CC(C)(C)P(=O)(c1ccncc1)N1CCCC1 (stereo unspecified)	-1%	3%
CN1CCN(c2ccc([N+](=O)[O-])cc2Cl)CC1	-4%	2%
CN(C)c1ccc(/C=C2/C(=N\O)C3CCN2CC3)cc1	-4%	-14%
C[C@]12CCC3[C@@H](CC[C@H]4C[C@@H](O)CC[C@]34C)C1CCC2=O (stereo partly specified)	-6%	-5%
O=P(CN1CCN(c2ccccc2)CC1)(N1CCCCC1)N1CCCCC1	-4%	3%
COc1ccc(CCn2c(O)c(C=Nc3ccccc3F)c(=O)[nH]c2=O)cc1OC	-5%	6%

Continued:
SMILES	GCN5L2 inh	N370S GC
O=C(NCc1cccnc1)C(Cl)(Cl)Cl	-1%	3%
COc1ccc(Cl)cc1NC1=NCC(C)S1 (stereo unspecified)	0%	-3%
CCOC(=O)c1cncn1[C@H](C)c1ccccc1	-3%&-12%	0%&-1%
CCCN1CCc2cccc3c2C1Cc1ccc(O)c(O)c1-3 (stereo unspecified)	-5%	1%&-6%
COc1cc(CN2CCCC(C(=O)c3sccc3C)C2)cc(OC)c1O (stereo unspecified)	1%	?
CCOP(=O)(OCC)C(NC(C)=O)C(Cl)(Cl)Cl (stereo unspecified)	21%	5%
O=[N+]([O-])[N-][n+]1cnn(Cc2ccc(Cl)cc2)c1	0%	-19%
COCCOC(=O)c1c(C)oc2ccc(OC(=O)N(C)C)cc12	-1%	0%
Cc1ccsc1C(=O)C1CCCN(Cc2cnc(N3CCCC3)s2)C1 (stereo unspecified)	1%	12%
COc1cc(OC)c(OC)cc1/C=C1/C(=O)NC(=O)N(Cc2ccccc2)C1=O	-1%	0%
CCCCCCC(=O)c1c(O)n(-c2ccccc2OC)c(=O)[nH]c1=O	-7%	1%
CCCCCCC(=O)c1c(O)n(-c2ccccc2OC)c(=O)[nH]c1=O (tested in a mixture with another compound)	0%	4%
O=C(NC1CONC1=O)OCC(Cl)(Cl)Cl (stereo unspecified)	1%	10%
CCc1ccc2nc(N3CCC(C(=O)N4CCC5(CC4)OCCO5)CC3)sc2c1	-3%	-11%
CCN1C[C@]2(COC)CC[C@H](OC)[C@@]34C1[C@]1(OCO[C@@]15C[C@H](OC)[C@H]1C[C@@H]3[C@@H]5[C@H]1OC)[C@@H](O)[C@H]24	-11%	0%
Clc1cccc(C2NCCc3[nH]cnc32)c1 (stereo unspecified)	0%	-4%
Cc1ccc(NC(=O)c2cc(-c3ccccc3)n(CCCN3CCOCC3)c2C)cc1	-1%	?
CC(=O)c1cccc(OCC(O)CN2CC=C(c3ccccc3)CC2)c1 (stereo unspecified)	-7%	7%[2.35 µM]
CC(=O)CC(=O)C1C(=O)N(C)C(=O)N(C)C1=O	-15%	1%
CNC(=O)c1cccn(Cc2cc(C(F)(F)F)cc(C(F)(F)F)c2)c1=O	-1%	-8%
CC(C)(C)C(=O)C(Oc1ccc(Cl)cc1)n1cncn1 (stereo unspecified)	-7%	-4%
CC(=O)O[C@H]1CC[C@H]2[C@@H]3CCC4=CC(=O)CCC4=C3C=C[C@]12C	-9%	/
Cc1ccccc1-n1c(O)c(/C=N/Nc2nc3c(c(=O)n(C)c(=O)n3C)n2C)c(=O)[nH]c1=S	-7%	-10%
S=C1CN=C(c2ccccc2Cl)c2cc(Cl)ccc2N1	-2%	-4%
O=c1oc2cccnc2n1CCS(=O)(=O)c1ccc(F)cc1	-2%	5%
C/C=C1/C[C@@H](C)[C@](O)(CO)C(=O)OCC2=CCN3CC[C@@H](OC1=O)C23 (stereo partly specified)	-5%	-4%&-10%
Nc1c(C(=O)Nc2ccc(Br)cc2F)sc2nc3c(cc12)N1CCC3CC1	0%	/
Cc1nccc2c1[nH]c1ccccc12	-11%	6%
COC(=O)C1=C(c2ccc(C(C)=O)cc2)C[C@@H]2CC[C@H]1N2C(=O)N1CCC(C)CC1	-5%	/
O=C(O)C1CSC(c2cccnc2)N1 (stereo unspecified)	-14%	3%
c1ccc(NC2=NCCCS2)cc1	2%	0%
COc1cc(/C=N/NC(=O)CN2CCCCC2)ccc1OCc1ccccc1	2%	?
Cc1cccn2c(=O)c3c(nc12)N1CCCCC1C1(C3)C(=O)N(C)C(=O)N(C)C1=O (stereo unspecified)	-3%	-2%

Assay outcomes: PubChem, National Center for Advancing Translational Sciences (NCATS)

A portion of the library, and most or all hits are left out here.
